Bioassay records: PubChem BioAssay, Broad Institute
ALR inh: inhibitors of human sulfhydryl oxidase ALR. P55789. purified ALR, DTT oxidation, H2O2 HRP-luminol luminescence. inhibition, % (concentration not given with the values). 290,000 tested, 3.8% active;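 active = mean and each replicate at 75% or more; inconclusive = only one of the two met; inactive = neither met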;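 note: stock transfer was 7.5 nL into about 7.5 µL; 0% = neutral wells and 100% = wells with inactivated enzyme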
Target sequence (P55789 whole entry, looked up): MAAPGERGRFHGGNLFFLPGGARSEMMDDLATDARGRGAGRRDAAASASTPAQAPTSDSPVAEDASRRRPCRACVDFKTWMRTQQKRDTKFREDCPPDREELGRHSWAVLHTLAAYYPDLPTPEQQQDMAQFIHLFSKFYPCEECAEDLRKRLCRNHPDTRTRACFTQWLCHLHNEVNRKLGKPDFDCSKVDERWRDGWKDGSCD
Beta cell apopt: blocks beta cell apoptosis | INS-1E cytokine-induced death, ATP luminescence, 48 h; percent of positive-control rescue, neutral wells zero | protection from apoptosis, % (concentration not given with the values) | 300,000 tested, 0.8% active;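 active = all replicates at 75% or more, or half of them and the mean; inconclusive = half reach 75% but not the mean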;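 note: 0% = cytokine-treated negative control wells and 100% = positive control rescue; higher means more ATP so stronger rescue from cytokine killing; wells of about 40 µL received 100 nL stock; the first replicate is given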
AF4-AF9 inh: MLL-AF4/AF9 protein interaction inhibition. P42568. AlphaScreen, biotin-AF4 peptide binding to FLAG-AF9. inhibition, % at 10 µM. 350,000 tested, 0.47% active. AID 651704;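 active = every replicate reaching a set inhibition limit, whatever the replicate mean, cut at about 25% in these data; inconclusive = mean inhibition reaches that limit but some replicates miss it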;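 note: 0% = plate neutral control median and 100% = total signal loss; the record names both 10 and 1 µM as test concentration; the first replicate is given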
Target sequence (P42568 whole entry, looked up): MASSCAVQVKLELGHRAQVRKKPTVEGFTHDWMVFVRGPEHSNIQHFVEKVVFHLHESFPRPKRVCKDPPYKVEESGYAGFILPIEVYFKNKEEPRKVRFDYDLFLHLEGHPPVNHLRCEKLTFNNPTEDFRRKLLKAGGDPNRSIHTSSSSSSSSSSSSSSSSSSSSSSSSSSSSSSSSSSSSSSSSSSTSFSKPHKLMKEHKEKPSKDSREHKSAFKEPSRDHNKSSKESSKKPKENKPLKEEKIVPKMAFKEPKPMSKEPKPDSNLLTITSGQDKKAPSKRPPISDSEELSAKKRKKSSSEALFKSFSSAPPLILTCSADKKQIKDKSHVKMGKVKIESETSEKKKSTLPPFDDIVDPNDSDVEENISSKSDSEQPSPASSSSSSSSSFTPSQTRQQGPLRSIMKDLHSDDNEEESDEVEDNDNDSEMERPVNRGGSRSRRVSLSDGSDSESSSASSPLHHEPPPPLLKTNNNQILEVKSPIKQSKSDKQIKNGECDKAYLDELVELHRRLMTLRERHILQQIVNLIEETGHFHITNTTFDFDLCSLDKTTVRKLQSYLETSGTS
Ecoli rRNA inh: inhibits bacterial ribosomal RNA function over humanized ribosomes. 350,000 tested, 1.6% active. E. coli WT GFP vs humanized-ribosome RFP mutants, fluorescence, 24 h; stronger effect = lower value; DMSO median 0, no signal -100. GFP signal change (wild-type ribosome), % (concentration not given with the values);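 active = significant combined selectivity score with lowered wild-type GFP, culture density cut under 30%, mutant RFP and density less affected; inactive = any of these conditions unmet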; note: one replicate is shown; some compounds called inactive have numbers as strong as hits
T cruzi repl: blocks replication of Trypanosoma cruzi | T. cruzi beta-gal in NIH3T3, luminescence, 90 h | inhibition, % (concentration not given with the values) | 300,000 tested, 1.4% active | AID 1885;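 active = mean inhibition across valid replicates above about 55%, limit read from the data; inconclusive = mean below that limit but half or more replicates reach it; inactive = mean below it, under half of replicates reach it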;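 note: signal also drops with host cell toxicity which is not excluded here; 0% = plate median of DMSO wells and 100% = zero luminescence signal; higher percent means less beta-gal luminescence so fewer parasites; stock transfer was 50 nL into about 50 µL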
FGF22 binding: binders of recombinant human FGF22 by thermal shift. Q9HCT0. SYPRO orange fluorescence; percent of sucrose octasulfate shift, DMSO zero. calls only at 9.99 µM. 340,000 tested, 1.5% active. AID 651658;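 active = melting point raised past a set limit in the mean and every replicate; inconclusive = no clear call; three in four hits are not shown here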
Target sequence (Q9HCT0 whole entry, looked up): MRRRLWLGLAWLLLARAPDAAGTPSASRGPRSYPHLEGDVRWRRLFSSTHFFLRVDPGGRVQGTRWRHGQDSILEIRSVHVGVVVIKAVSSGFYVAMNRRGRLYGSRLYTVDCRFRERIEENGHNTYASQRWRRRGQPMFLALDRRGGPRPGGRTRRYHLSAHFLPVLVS
RanGTP-Impb inh: inhibitors of RanGTP-importin-beta interaction, primary screen, biochemical, FRET, CFP-Ran, YFP-importin-beta, homogeneous; cell-free CFP-Ran/YFP-importin-beta FRET ratio; inhibition, % (no concentration beside the values); 300,000 tested, 1.1% active;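 active = most replicates above 15%; inconclusive = exactly half above 15%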;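 note: 0% = DMSO wells and 100% = Ran loaded with GDP instead of GTP; wells of about 40 µL received 100 nL stock; the first replicate is given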
Calb FLC: affects C. albicans growth with fluconazole; C. albicans CaCi-2 (fluconazole-resistant clinical isolate) + fluconazole, Alamar Blue growth, 48 h; growth inhibition, % (concentration not given with the values); 300,000 tested, 0.57% active;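 active = most replicates above 75%; inconclusive = exactly half above 75%; inactive = most below 75%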;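 note: all wells also contain fluconazole at 8 µg/ml as a sub-toxic cotreatment; 0% = median of DMSO wells and 100% = median of geldanamycin control wells; wells of about 8 µL received 7.5 nL stock; the first replicate is given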
Ecoli rRNA inh OD600: also measured in Ecoli rRNA inh; calls as there; OD600 change, %; measured here: OD600 growth;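 optical density of the mix in the first replicate; 0 = DMSO median and -100 = no signal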
Ecoli rRNA inh RFP: also measured in Ecoli rRNA inh; calls as there; RFP signal change, %; measured here: RFP humanized mutant strains;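 first replicate; 0 = DMSO median and -100 = no signal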
The depositor's hits bear a star; i = inactive; ? = inconclusive; · = no result given. Not all compounds are listed (hit frequency here may not be typical).

SMILES	ALR inh	Beta cell apopt	AF4-AF9 inh	Ecoli rRNA inh	Ecoli rRNA inh OD600	Ecoli rRNA inh RFP	T cruzi repl	FGF22 binding	RanGTP-Impb inh	Calb FLC
OC(COc1ccc(F)cc1Cl)CN1CCC(Cc2ccccc2)CC1 (stereo not drawn)	2	3	5.8	5	-37	7.2	63*	i	?	16
CCC1CCc2sc(C(=O)NNC(=O)c3ccncc3)cc2C1 (stereo not drawn)	2	-3	-0.5	-18	-8	-2.1	1	i	·	-2
CC(C)(C)n1nc2c(c1NC(=O)COc1ccccc1F)CS(=O)(=O)C2	0	0	0.1	4	-1	1.8	-10	i	-0.4	-4
Cc1ccc(N2C(N)=C(C#N)C(c3cccnc3)C3=C2CCCC3=O)cc1 (stereo not drawn)	35	-9	·	·	·	·	5	·	-1.8	-3
CCc1cc(-c2[nH]ncc2-c2nc3ccccc3n2C)c(O)cc1O	39	-1	2.8	-14	-7	4.5	2	i	?	1
O=C1NCN(CCO)CN1	-6	1	-6.8	7	8	-0.6	-16	i	2.4	-5
Cc1cc(C)nc(NCC(O)CNc2ccccc2Cl)n1 (stereo not drawn)	92*	-3	·	·	·	·	15	·	-0.3	10
CCCSc1ccc([C@@H]2[C@H]3C(=O)N(CC)C(=O)[C@H]3[C@]3(C(=O)OC)CCCCN23)cc1OC	-4	4	0.3	·	·	·	11	i	4.6	4
CCOc1ccc(C(=O)Nc2cc(-c3nc4ccccc4[nH]3)ccc2C)cc1[N+](=O)[O-]	-3	0	·	·	·	·	18	·	-1.9	-1
COc1ccc(C(C(=O)NCC2CCCO2)N(C(=O)Cn2nnc3ccccc32)c2ccc(NC(C)=O)cc2)cc1 (stereo not drawn)	0	-7	-1.7	4	6	-1.8	1	i	1.0	-6
NS(=O)(=O)c1ccc(CCNC(=O)CSc2nc3ccccc3c(=O)n2CCN2CCOCC2)cc1	-14	-2	-1.9	14	8	-1.2	-18	·	-4.5	21
Cc1nn(CC(C)C)c(Cl)c1C(=O)N(C)CC(=O)Nc1c(Cl)cccc1Cl	6	2	-1.8	1	3	-4.0	-9	i	2.9	13
Cc1cccc(-n2ccc(=O)c(C(=O)Nc3ccc(S(=O)(=O)Nc4nccs4)cc3)n2)c1	2	-5	-6.4	-12	-5	3.6	-8	i	-0.2	·
COCCN(CC(=O)Nc1cccc(C)c1C)C(=O)C1(c2ccc(Cl)cc2)CCC1	·	11	1.0	-22	-51	-2.5	·	i	·	·
CC(=O)NC(Cc1ccccc1F)C(=O)NC1CCN(c2ncccc2[N+](=O)[O-])CC1 (stereo not drawn)	2	3	-0.5	1	-6	-5.4	-8	i	?	-2
COc1ccc(C(=O)C[N+]2(C)CCOCC2)cc1	-2	0	-2.3	2	11	0.6	0	i	-2.7	7
CC(C)C(=O)NC(=S)NCC(=O)c1ccccc1	15	-1	·	0	-8	-5.8	1	·	0.1	2
COC(=O)C1C(=O)CC(C)(O)C(C(=O)OC)C1c1ccc2c(c1)OCO2 (stereo not drawn)	-3	-4	·	·	·	·	16	·	2.0	0
C=CCn1c(COc2cccc(C)c2)nnc1SCC(=O)c1c[nH]c2c(CC)cccc12	-4	-6	·	·	·	·	18	·	3.7	3
COc1ccc(CCNC(=O)c2cccn2C)cc1	-3	6	1.1	1	21	2.9	-7	i	5.3	-1
Cc1ccc(OCC(=O)NC(=S)Nc2cccc(C)n2)cc1	-1	-15	·	·	·	·	-17	·	-7.2	-24
Cc1cc(C(F)(F)F)nc(SCC(=O)Nc2ccccc2)n1	0	-2	·	2	-3	-2.0	-17	·	1.3	-8
Cc1ccnc(NCc2ccc(Br)cc2)c1	-6	-15	1.3	1	-9	-2.1	5	i	0.9	-31
CCCOc1ccc(C2c3c(oc4cc(C)c(C)cc4c3=O)C(=O)N2CCCN2CCOCC2)cc1 (stereo not drawn)	8	-4	3.6	-4	9	9.4	10	i	-0.9	-2

Complete entries, looked up by structure. Values in the order: ALR inh	Beta cell apopt	AF4-AF9 inh	Ecoli rRNA inh	Ecoli rRNA inh OD600	Ecoli rRNA inh RFP	T cruzi repl	FGF22 binding	RanGTP-Impb inh	Calb FLC
COc1ccc(C(=O)C[N+]2(C)CCOCC2)cc1 in the list: -2	0	-2.3	2	11	0.6	0	i	-2.7	7
COc1ccc(CCNC(=O)c2cccn2C)cc1 in the list: -3	6	1.1	1	21	2.9	-7	i	5.3	-1
COc1ccc(C(C(=O)NCC2CCCO2)N(C(=O)Cn2nnc3ccccc32)c2ccc(NC(C)=O)cc2)cc1 (stereo not drawn) in the list: 0	-7	-1.7	4	6	-1.8	1	i	1.0	-6
Cc1ccc(OCC(=O)NC(=S)Nc2cccc(C)n2)cc1 in the list: -1	-15	·	·	·	·	-17	·	-7.2	-24
CCCOc1ccc(C2c3c(oc4cc(C)c(C)cc4c3=O)C(=O)N2CCCN2CCOCC2)cc1 (stereo not drawn) in the list: 8	-4	3.6	-4	9	9.4	10	i	-0.9	-2

Going on with the list:
SMILES	ALR inh	Beta cell apopt	AF4-AF9 inh	Ecoli rRNA inh	Ecoli rRNA inh OD600	Ecoli rRNA inh RFP	T cruzi repl	FGF22 binding	RanGTP-Impb inh	Calb FLC
Cc1cccc(/C(N)=N/OC(=O)c2ccc(F)cc2)c1	1	-3	·	·	·	·	-2	·	-5.9	1
CCOC(=O)c1nn(-c2ccccc2)c2nc(-c3ccc(OC)cc3)c(C#N)c(=O)n12	1	-5	3.4	7	18	5.1	-20	i	-0.8	5
Cc1ccccc1NC(=O)CSc1nc(=O)n(CCN2CCOCC2)c2c1CCCC2	-13	-8	?	-1	4	-0.1	1	i	?	1
CC(=O)c1ccc(N=Nc2c(C)[nH][nH]c2=O)cc1	-20	6	0.9	·	·	·	-14	i	0.3	-26
CCOc1cc(/C=C2\C(=N)N3N=C(N4CCCCC4)SC3=NC2=O)ccc1OC(=O)c1ccco1	33	5	6.4	1	7	4.1	-5	i	?	-1
Cc1cc(NC(=O)c2cc(C)on2)no1	8	-6	·	·	·	·	-12	·	5.0	-7
COc1cccc(/C=C2\SC(=S)N(CC(=O)N(C)C3CCS(=O)(=O)C3)C2=O)c1 (stereo not drawn)	-5	-12	12	9	13	0.2	-7	i	5.8	·
CC[C@@]1(c2cccc(C)c2)C(=O)N(C(=O)OC)N1C(=O)OC	83*	-16	5.1	15	15	-0.3	-3	i	0.6	-10
CC1=CC(C)(C)N(C(=O)CNC2CCCC2)c2cc(C)ccc21	-1	3	-2.9	-1	-12	-7.2	8	i	-0.1	-40
O=C(O)c1ccc(CN(c2ccccn2)S(=O)(=O)c2ccccc2)cc1	1	·	·	·	·	·	-7	·	-5.7	11
O=C1Nc2ccc(F)cc2C12Nc1ccccc1-c1nnc(SCc3ccccc3F)nc1O2 (stereo not drawn)	-7	-11	-3.3	-14	0	-2.5	-3	·	7.2	-6
COc1ccc(CN2CCC(C(N)=O)CC2)cc1OCc1ccccc1	-1	-4	-1.4	7	11	0.1	-24	i	4.5	7
Cc1ccc(Nc2nc(N)nc(CN3CCN(Cc4ccc5c(c4)OCO5)CC3)n2)cc1Cl	-15	-2	·	·	·	·	8	·	-6.3	53
O=C(NC1CCOc2ccccc21)c1ccccn1 (stereo not drawn)	-5	-3	-0.1	5	6	0.7	-4	i	1.9	-13
COc1cc(C(=O)N2CCN(C(=O)CC(C)C)CC2)cc(OC)c1OC	-11	-5	0.9	6	4	-0.3	-14	i	-0.3	-7
CCC1=NN(C(=O)c2cccnc2)C(O)(C(F)(F)F)C1 (stereo not drawn)	·	-10	·	·	·	·	-9	·	4.6	-3
Cc1ccc(-n2c(N)c(-c3nc4ccccc4n3C)sc2=S)cc1	10	6	·	·	·	·	39	·	28*	-6
COc1ccc(C2C/C(=N\O)C(C)(C)O2)cc1 (stereo not drawn)	-7	-8	·	·	·	·	3	·	?	17
CCOc1ccccc1NC(=O)N1CCC(NC(=O)C2CCCCC2)CC1	·	·	-0.4	-3	3	0.4	8	i	-0.9	2
Cc1ccc(SCC(=O)NCCN2C(=O)CSC2=O)c(C)c1	-18	-1	·	·	·	·	-1	·	-2.3	-8
Cn1c(SCC(=O)c2ccccc2)nnc1-c1cccc(N)c1	17	-8	·	·	·	·	-11	·	1.1	-12
Cc1nc(SCC(O)CO)c([N+](=O)[O-])[nH]1 (stereo not drawn)	-4	-9	·	·	·	·	2	·	-2.4	-4
Cc1ccc(C2CC(=O)NC(SCC(N)=O)=C2C#N)s1 (stereo not drawn)	-3	-5	-2.8	5	12	-9.2	-1	i	-2.2	31
CC(C)NC(=O)c1ccccc1NC(=O)CCS(=O)(=O)Cc1ccccc1	1	·	·	·	·	·	-6	·	-0.7	8
Nc1nc(NC(=O)c2cccnc2)nn1-c1ccccc1	-1	-4	·	·	·	·	-20	·	-3.2	-3
O=C(NCC(=O)N1CCN(S(=O)(=O)c2ccc3c(c2)OCCO3)CC1)c1ccccc1F	-7	-1	-2.0	4	-1	-3.2	·	i	·	·
Cc1c(C(=O)OCC(=O)Nc2ccc(C(N)=O)cc2)cccc1[N+](=O)[O-]	4	3	-1.9	·	·	·	-6	i	-2.5	1
COc1ccc(N(CC(=O)N/N=C/c2ccc(OC3CSC3)cc2)S(=O)(=O)c2ccccc2)cc1	-2	-5	1.0	19	3	-1.6	-1	i	2.8	-7
CCOC(=O)c1ccc(NC(=O)CSc2nc3c(c(=O)n2CC)SC(C)C3)cc1 (stereo not drawn)	99*	7	0.8	-8	-38	-4.2	17	i	-0.9	3
CCOc1cc(CN2CCOCC2)cc(C(C)=O)c1	4	-4	·	·	·	·	-5	·	2.2	-2
Cc1cc(-c2nnc(SCC(=O)Nc3c(C)cccc3C)n2N)n[nH]1	0	2	0.2	4	15	-3.6	-15	i	-0.7	10
CC(C)(C)n1nc2c(c1NC(=O)c1ccc(Br)o1)CS(=O)C2 (stereo not drawn)	-1	-3	·	·	·	·	1	·	0.1	0
O=S(=O)(Nc1nnc(C2CC2)s1)c1ccccc1	·	·	-8.3	-4	10	3.5	8	i	-5.8	12
O=C(Nc1ncc(Cc2ccc(SC(F)F)cc2)s1)c1ccc(OC(F)F)cc1	-13	16	-16	·	·	·	-6	i	2.3	2
Cc1c(-c2cccc(Cl)c2)nc2ccccc2c1C(=O)OC/C(O)=C(\C#N)c1nc2ccccc2[nH]1	·	97*	-0.9	16	14	0.2	42	i	-0.1	23
COc1ccc2[nH]c(=O)c(COC(=O)c3ccco3)cc2c1	-19	-11	·	·	·	·	-7	·	0.3	-8
COc1ccccc1OCCNC(=O)CCS(=O)(=O)c1ccccc1	·	-3	-0.4	3	7	-4.3	·	i	·	·
Cc1[nH]nc(-c2ccc(O)c(C)c2O)c1Oc1ccccc1	73	-6	·	·	·	·	3	·	5.1	-17
C=CCOC(=O)Nc1c(C(=O)OC)[nH]c2ccc(Cl)cc12	22	-6	·	·	·	·	9	·	-0.1	14
Cc1ccc(-c2cc(N)n[nH]2)cc1	-6	-9	·	·	·	·	10	·	2.7	1
CC1(C)CC(=O)c2cc(OCC(=O)NCCCN3CCN(c4ccccc4F)CC3)ccc2O1	3	8	·	·	·	·	-6	·	3.2	-14
